Bioassay records as filed in PubChem BioAssay.
Mtb growth: Confirmatory growth inhibition assay against Mycobacterium tuberculosis H37Rv, potency (AID 1949). most inactive calls were filed without a number and no value below 0 was filed. one-dose inhibition, % at 10 µg/mL; IC50 in µg/mL for titrated hits. hit rate 1.6% among 100,000;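 active = confirmed in a dose series; inconclusive = about 50% or more but not retested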;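 note: bacteria grown 7 days with compound before Alamar blue readout; 0% = untreated bacteria and 100% = reference antibiotic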
Numbers without * were called inactive; i = inactive; ? = inconclusive. Some of the compounds tested; the hit share may differ from the screen's.

SMILES	Mtb growth
CC(C)C(=O)N(c1ccccc1)c1ccccc1	i
COc1ccc(-c2nc3ccc(NC(C)=O)cc3[nH]2)cc1	i
Cn1c(NC(=S)Nc2ccccc2)nc2ccccc21	0.35µg/mL*
O=C(Nc1ccc2c(c1)C(=O)NC2=O)c1ccc(Cl)c(Cl)c1	i
CCOC(=O)N1CCN(C(=O)C(C)Oc2cccc(Cl)c2)CC1 (stereo not drawn)	i
CN(Cc1ccccc1)S(=O)(=O)c1ccc(NC(=S)Nc2ccccc2)cc1	3%
Cc1ccc(S(=O)(=O)NC(C(=O)Oc2ccc3c(c2)oc(=O)c2ccccc23)c2ccccc2)cc1 (stereo not drawn)	i
Cc1nc2ccccc2n1C(C)c1ccccc1 (stereo not drawn)	i
COc1cccc(C2NC(=S)NC(C)=C2C(=O)N(C)C)c1OC (stereo not drawn)	i
CCOc1cc(C2NC(=S)NC(C)=C2C(=O)OC)ccc1OCC(=O)Nc1ccc(C)cc1 (stereo not drawn)	7%
CCNCc1cc(OCC)c(OCC(=O)NCCc2ccccc2)cc1Cl	i
O=S(=O)(NCCN1CCOCC1)c1cc(Cl)c(Cl)cc1Cl	i

Some of the entries so far, field by field.
Cc1nc2ccccc2n1C(C)c1ccccc1 (stereo not drawn)
- Mtb growth = i
COc1cccc(C2NC(=S)NC(C)=C2C(=O)N(C)C)c1OC (stereo not drawn)
- Mtb growth = i
CCOc1cc(C2NC(=S)NC(C)=C2C(=O)OC)ccc1OCC(=O)Nc1ccc(C)cc1 (stereo not drawn)
- Mtb growth = 7%
CCNCc1cc(OCC)c(OCC(=O)NCCc2ccccc2)cc1Cl
- Mtb growth = i

Additional compounds follow:
SMILES	Mtb growth
CC(NC(=O)C(=O)NCc1cccs1)c1ccccc1 (stereo not drawn)	i
Nc1nnc(SCC(=O)Nc2ccc(I)cc2)s1	i
COc1ccc(C(=O)NCc2ccc(C(=O)O)o2)cc1	i
CC1CN=C(N(C(=O)Nc2ccccc2)c2ccc(F)cc2F)S1 (stereo not drawn)	6%
Cc1ccc(NC(=O)C2CCC(N3C(=O)C4C5CCC(C5)C4C3=O)CC2)c(C)c1 (stereo not drawn)	i
COc1ccc(S(=O)(=O)N(CCc2ccccc2)CC(=O)N2CCOCC2)cc1	i
COc1ccccc1NC(=O)CSc1nnc(-c2ccc(C)cc2)n1C	i
CCN(CC)c1ccc(NC(=O)c2ccc([N+](=O)[O-])o2)c(C)c1	0.52µg/mL*
COC(=O)c1ccc(C2C(C(=O)Nc3ccccc3)=C(C)Nc3nnnn32)cc1 (stereo not drawn)	1%
Nc1ncnc(NCCCc2ccccc2)c1[N+](=O)[O-]	i
COC(=O)c1cc(S(=O)(=O)n2nc(C)cc2C)c(Cl)cc1Cl	i
Cc1ccc(Nc2nc(-c3ccc(O)cc3O)cs2)nc1	?
COc1ccc(S(=O)(=O)N2CCCCCC2)cc1C	4%
O=c1[nH]c2c(c(=O)n1C1CCCCC1)CCC2	i
CC(=O)C1=C(C)NC(SCC(=O)Nc2nccs2)=C(C#N)C1c1ccccc1Cl (stereo not drawn)	i
Cc1nc(-c2ccc(NS(=O)(=O)c3ccc4ccccc4c3)cc2)cs1	i
O=C1CC(c2cccc(Br)c2)c2c(c3ccccc3oc2=O)O1 (stereo not drawn)	i
COc1ccc(/C=C/c2nc3ccc(I)cc3c(=O)n2-c2ccccc2)cc1	i
Nc1nc(-c2ccco2)nn1C(=O)c1ccco1	2%
CCOc1ccccc1OCC(O)CNC (stereo not drawn)	i
COc1ccc(OC)c(NC(=O)Nc2ccc(C)cn2)c1	i
COc1ccc(S(=O)(=O)N2CCC(C(=O)N3CCN(Cc4ccccc4)CC3)CC2)cc1	4%
CC(C)NC(=O)C(C)N(c1ccc(Oc2ccccc2)cc1)S(C)(=O)=O (stereo not drawn)	i
O=S(=O)(NCc1ccco1)c1ccc(F)cc1	4%
Nc1nonc1-c1nc2ccccc2n1CCn1c(-c2nonc2N)nc2ccccc21	i
COc1ccc([N+](=O)[O-])cc1NC(=O)c1ccc(CN2CCc3ccccc3C2)cc1	2%
Cc1c(C(=O)O/N=C(\N)c2ccccc2)cccc1[N+](=O)[O-]	9%
CCN1CCN(c2nc(C)c3c(n2)CC(c2cccs2)CC3=O)CC1 (stereo not drawn)	0%
Cc1csc(NC(=O)CSc2nnc(C(C)NC(=O)c3ccc(Cl)cc3)n2C)n1 (stereo not drawn)	i
COC(=O)c1cc(OC)c(OC)cc1NC(=S)NCc1ccc(Cl)cc1	i
O=C(NC1c2ccccc2-c2ccccc21)C(Cc1ccccc1)N1C(=O)c2ccccc2C1=O (stereo not drawn)	i
COc1ccccc1OCCNC(=O)c1cc(SC)ccc1Cl	i
Cc1cccc(N2C(=O)CC(Cc3ccc(Cl)cc3)C2=O)c1Cl (stereo not drawn)	7%
COc1ccc(-n2nc(C(=O)O)cc2-c2ccccc2)cc1	i
CC(=O)Nc1nc2n(n1)C(c1ccc(Cl)cc1)C=C(C)N2 (stereo not drawn)	i
COc1ccc(OC)c(C(C)NC(=O)c2ccccc2Br)c1 (stereo not drawn)	i
N#Cc1ccc(NC(=O)CSc2ccc(Cl)cc2)cc1	2.9µg/mL*
Cc1ccc(F)c(NC(=O)CSc2ccc(Br)cc2)c1	i
Cc1ccc(N2C(=O)CC(NCc3ccc(Cl)cc3)C2=O)cc1Cl (stereo not drawn)	i
O=C(Nc1ccccc1OC(F)F)c1ccc(Br)cc1	i
O=S(=O)(CCSc1nc2ccccc2s1)c1nc2ccccc2s1	7.2µg/mL*
Cc1[nH]c2ccccc2c1Cc1n[nH]c(=S)n1Cc1ccccc1	1%
CCc1ccc(-n2nc(C)c(-c3cccc([N+](=O)[O-])c3)c2C)cc1	i
COc1cccc(C2C(C(=O)c3cccs3)=C(O)C(=O)N2CCN(C)C)c1OC (stereo not drawn)	i
CCN(C(=O)C12CCC(C)(C(=O)O1)C2(C)C)c1cccc(C)c1 (stereo not drawn)	1%
CS(=O)(=O)N1CCC(C(=O)Nc2ccc(I)cc2)CC1	i
COC(=O)c1ccc(OC(=O)Cc2ccc(Cl)cc2)cc1	i
Cc1ccc(C(=O)Nc2ccc(C#N)cc2)cc1C	i
O=C(CSc1nc(-c2ccco2)cc(C(F)(F)F)n1)Nc1ccc(F)c(F)c1	i
O=C(COc1ccc2ccccc2c1Br)NCc1ccc(Cl)cc1	i
CCCCCC(=O)Nc1ccc(NC(=O)C(C)C)c(OC)c1	1%
O=S(=O)(c1cccs1)n1nnc2ccccc21	i
O=C(Nc1ccccc1Cl)c1ccc(CSc2ccc(Cl)cc2)cc1	5%
O=C(CC1(O)C(=O)N(Cc2ccc(Cl)cc2)c2ccc(Cl)cc21)c1ccncc1 (stereo not drawn)	i
COc1ccc(S(=O)(=O)N(CC(=O)Nc2ccc(F)cc2F)c2ccc(C)cc2)cc1	i
COc1ccc(CNC(=O)C2CC=CCC2C(=O)O)cc1OC (stereo not drawn)	i
COc1ccc(Cl)cc1N(CC(=O)Nc1ccc(Br)cc1F)S(C)(=O)=O	i
Cc1cccc(NC(=O)CN(c2cccc(Br)c2)S(=O)(=O)c2ccccc2)c1C	i
O=C(CCN1C(=O)c2ccccc2C1=O)OCc1ccc(Cl)cc1	i
CC(=O)Nc1cccc(-c2nnc3c4ccccc4c(C)nn23)c1	i
Next part:
SMILES	Mtb growth
O=C(Nc1ccccc1N1CCN(C(=O)c2ccccc2)CC1)c1cccc2c(Cl)cccc12	9%
COc1cccc(OC)c1C(=O)Nc1cccc(-c2nc3ccccc3s2)c1	i
COc1cccc(CN2CCN(C(=S)NCc3ccc(Cl)cc3)CC2)c1	6%
Cc1ccc(-c2csc(N)c2C(N)=O)cc1C	5%
COc1ccc(C(=O)Nc2ccc(NC(=O)C(C)C)c(OC)c2)cc1Cl	i
COc1ccc(C)cc1N(CC(=O)Nc1ccc(CC#N)cc1)S(C)(=O)=O	i
Cn1c(SCC(=O)NCCc2ccccc2)nnc1-c1ccc(Br)cc1	i
CC(=O)Nc1ccc(CNCC(C)C)cc1	i
Cn1c(SCC(=O)Nc2ccc(Cl)cc2Cl)nnc1-c1ccncc1	i
CCOC(=O)C1CCCN(c2ncnc3c2cnn3-c2ccc(Cl)cc2)C1 (stereo not drawn)	4.2µg/mL*
O=C(c1cccc(F)c1)N1CCN(c2ccc([N+](=O)[O-])c(N3CCc4ccccc4C3)c2)CC1	48%
CCOC(=O)C1C(=O)OC(C)(C)C1C(C)C(=O)c1ccc(Br)cc1 (stereo not drawn)	i
O=C(Nc1cccc(Br)c1)C1CCCCC1	i
CCOC(=O)c1c(N)sc(C(=O)Nc2cc(C(F)(F)F)ccc2Cl)c1C	i
CCc1ncc(C(O)(c2ccccc2)c2ccc(C)cc2)n1C (stereo not drawn)	i
COc1ccc(C(=O)NC(=S)N2CCC(C)CC2)cc1	i
COc1cccc(C=O)c1OC(=O)c1ccccc1Cl	i
CCOC(=O)/C=C1/NC2(CCCC2)Cc2cc(OC)c(OC)cc21	1%
COc1ccccc1NC(=O)CN(c1ccc(C)cc1C)S(C)(=O)=O	i
CC(=O)Oc1ccc2c(C(F)(F)F)cc(=O)oc2c1C	i
Cc1nc(NC(=O)c2cccc(Cl)c2)sc1C(=O)N(C)C	1%
CC1CCN(S(=O)(=O)c2ccc(NC(=S)NCc3ccccc3)cc2)CC1	i
CCOc1ccccc1OCCCN1CCCC(C)C1 (stereo not drawn)	i
CCCCCC(=O)Nc1ccc(N2CCN(CC)CC2)c(Cl)c1	i
Cc1ccc(-n2c(SCC(=O)Nc3cccc(F)c3)nc3ccccc3c2=O)cc1	2%
CC1CC(C)CN(C(=O)c2cc3ccccc3oc2=O)C1 (stereo not drawn)	i
O=C(c1cccc(-n2cnnn2)c1)N1CCOCC1	i
O=C(Cc1cccc2ccccc12)Nc1ccc(CCC(=O)N2CCCC2)cc1	i
O=S(=O)(Oc1ccc(Br)cc1C(=S)N1CCOCC1)c1ccc2ccccc2c1	i
Cc1noc(C)c1C(=O)Nc1ccccc1I	i
CN(C)S(=O)(=O)c1ccc2nc(NC(=O)C(c3ccccc3)c3ccccc3)sc2c1	i
CCC(=O)Nc1nc2ccccc2n1CCN1CCOCC1	i
C=C(C)COc1cc2oc(=O)c(C)c(C)c2cc1Cl	i
C=C(C)CC(c1ccccc1)N(C(C)=O)c1ccco1 (stereo not drawn)	i
COC(=O)c1ccccc1NC(=O)CCSc1ccc(C)cc1	1%
Cc1ccc(CNC(=O)C(=O)Nc2nccs2)cc1	i

6 of the compounds above, comma-delimited:
smiles,Mtb growth
C=C(C)CC(c1ccccc1)N(C(C)=O)c1ccco1 (stereo not drawn),i
Cc1noc(C)c1C(=O)Nc1ccccc1I,i
O=S(=O)(Oc1ccc(Br)cc1C(=S)N1CCOCC1)c1ccc2ccccc2c1,i
Cc1ccc(CNC(=O)C(=O)Nc2nccs2)cc1,i
O=C(c1cccc(-n2cnnn2)c1)N1CCOCC1,i
Cc1ccc(-n2c(SCC(=O)Nc3cccc(F)c3)nc3ccccc3c2=O)cc1,2%

Next part:
SMILES	Mtb growth
CCOC(=O)c1ccc(NC(=O)N2CCN(c3ccccn3)CC2)cc1	i
O=C(CCN1CCN(C/C=C/c2ccccc2)CC1)Nc1ccc(F)c(F)c1	i
COc1ccc2c(=O)c(Oc3ccccc3F)c(C)oc2c1C	i
CCCOc1ccc(N2C(=O)CC(NCc3cccs3)C2=O)cc1 (stereo not drawn)	i
CC(=O)c1cccc(NC(=O)N2CCCc3ccccc32)c1	?
Cc1ccc(S(=O)(=O)N2CCC(C(=O)Nc3cccc(Cl)c3Cl)CC2)cc1	i
CCOC(=O)C1CCN(C(=O)CN(c2ccc(Cl)c(C(F)(F)F)c2)S(C)(=O)=O)CC1	i
O=C(NCc1ccc(Cl)cc1Cl)Nc1ccccc1	i
C=CCOC(=O)C1=C(C)NC(C)=C(C(=O)OCC=C)C1c1ccc(C(=O)OC)cc1	i
CCCCOc1ccc(CN2C(=O)C(=O)c3cc(Br)ccc32)cc1OC	12%
CC(=O)c1ccc(NC(=O)COc2cccc3ccccc23)cc1	i
N#Cc1ccc(C(=O)Nc2ccc(NC(=O)c3ccc(Cl)cc3Cl)cc2)c(F)c1	2%
COc1cc(N2CCCC2)c(OC)cc1/C=C(/C#N)c1ccc(F)cc1	i
Cc1cc(C)cc(C(=O)Nc2ccc(N3CCN(c4c(F)c(F)c(F)c(F)c4F)CC3)cc2)c1	i
O=C(NCCc1ccccc1)c1ccccc1NS(=O)(=O)N1CCCC1	i
c1ccc(OCCN2C3=NCCN3c3ccccc32)cc1	i
CCc1cccc(CC)c1NC(=O)CN(c1ccc(Cl)cc1C)S(C)(=O)=O	i
O=C(O)c1cccc2c1NC(c1ccc3c(c1)OCO3)C1C3CCC(C3)C21 (stereo not drawn)	i
O=C(/C=C/c1ccc2c(c1)OCO2)N1CCC(CN2C(=O)c3cccc4cccc(c34)C2=O)CC1	34%
Cc1cc(OCC(=O)Nc2c(C(C)C)cccc2C(C)C)ccc1Cl	i
CCn1c(SCC(=O)Nc2c(C)n(C)n(-c3ccccc3)c2=O)nc2c1c(=O)n(C)c(=O)n2C	i
CC(C)(C)C(=O)N1CCn2c1nc1ccccc12	i
CCC(=O)N1CCN(c2cc(Cl)ccc2C)CC1	1%
c1ccc2c(c1)OCC(c1csc3ncnc(N4CCCC4)c13)O2 (stereo not drawn)	7%

Quoted at random: 5 compounds from above
SMILES	Mtb growth
CCc1cccc(CC)c1NC(=O)CN(c1ccc(Cl)cc1C)S(C)(=O)=O	i
Cc1cc(OCC(=O)Nc2c(C(C)C)cccc2C(C)C)ccc1Cl	i
CC(C)(C)C(=O)N1CCn2c1nc1ccccc12	i
COc1cc(N2CCCC2)c(OC)cc1/C=C(/C#N)c1ccc(F)cc1	i
O=C(NCCc1ccccc1)c1ccccc1NS(=O)(=O)N1CCCC1	i

New compounds follow.
SMILES	Mtb growth
COc1ccc(C2CC(=O)C3=C(C2)NC(C)=C(C(=O)Nc2ccc(C)cc2)C3c2ccccc2OC)cc1OC (stereo not drawn)	i
O=c1cc(C(F)(F)F)[nH]n1-c1ccccc1	i
Fc1ccc(CNc2ccccn2)cc1	i
COc1cccc(CN2CCC(N(CCc3ccccc3)Cc3ccccc3)CC2)c1OC	6.3µg/mL*
